Bioassay records: PubChem, National Center for Advancing Translational Sciences (NCATS)
D2 agonist – agonists of human D2 dopamine receptor (beta-arrestin); DiscoveRx PathHunter D2 beta-arrestin, luminescence, 90 min; 100% = 57 uM dopamine signal; activation, % (test concentration not listed); 360,000 tested, 0.084% active; in the data active = activation above about 40%; inconclusive = about 15% to 40%; inactive = below about 15%; also: compound concentration not given in the record; the text of the record calls up to 30% inactive
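DiscoveRx PathHunter D2 beta-arrestin cells (2,100/well) attached overnight, then compound-stimulated 90 min at 37 C in HBSS/10 mM HEPES/0.1% Tween-20 buffer; beta-galactosidase complementation read by luminescence after 1 h at ambient temperature. Dopamine 57 uM final (EC100) as control.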
D2 potentiator – human D2 receptor positive allosteric modulation; 360,000 tested, 0.23% active; DiscoveRx D2 beta-arrestin cells, luminescence, 90 min; 100% = 57 uM dopamine signal; potentiation, % (no concentration beside the values); P14416; AID 624464; active = potentiation of 50% or more; inconclusive = 30% to 50%; inactive = 30% or less;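 also: compound concentration not given in the record; tested on top of an EC20 dose of dopamine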
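D2 cells co-treated with compound plus 50 nM dopamine (EC20) for 90 min at 37 deg C to detect potentiation. Beta-arrestin recruitment was read as enzyme-fragment luminescence after 1 h at ambient temperature. Full response was set by 57 uM dopamine.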
Six1-Eya2 inh – Six1/Eya2 interaction inhibition; AID 651725; 360,000 tested, 0.56% active; activity change, % (no concentration beside the values); Q15475+O00167; AlphaScreen GST-Six1/His-Eya2 binding, biochemical; stronger effect = lower value; control for the full effect not named in the record; in the data active = activity change below about -65%; inconclusive = about -30% to -65%; inactive = above about -30%; also: % is scaled to controls: 0 for no effect and ±100 for the full control effect; compound concentration not given in the record
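Homogeneous AlphaScreen proximity assay pairing GST-Six1 with His-tagged Eya2 (added as 5X mix: 250 nM and 500 nM) in 50 mM Tris pH 8.0, 300 mM NaCl, 1 mM TCEP. Glutathione donor and nickel acceptor beads; 1 h, 37 °C, dark.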
TRPV1 potentiator – enhances activation of the human vanilloid receptor TRPV1; 320,000 tested, 0.02% active; TRPV1-expressing cells, Fluo-8 calcium influx, capsaicin EC20 potentiation; host cell line not named in the record; control for the full effect not named in the record; AID 540277; Q8NER1; potentiation, % at 8.33 µM; active means potentiation above 80%; inconclusive means 30% to 80%; inactive means below 30%; also: 0% is about no effect
Target sequence (Q8NER1 whole entry, looked up): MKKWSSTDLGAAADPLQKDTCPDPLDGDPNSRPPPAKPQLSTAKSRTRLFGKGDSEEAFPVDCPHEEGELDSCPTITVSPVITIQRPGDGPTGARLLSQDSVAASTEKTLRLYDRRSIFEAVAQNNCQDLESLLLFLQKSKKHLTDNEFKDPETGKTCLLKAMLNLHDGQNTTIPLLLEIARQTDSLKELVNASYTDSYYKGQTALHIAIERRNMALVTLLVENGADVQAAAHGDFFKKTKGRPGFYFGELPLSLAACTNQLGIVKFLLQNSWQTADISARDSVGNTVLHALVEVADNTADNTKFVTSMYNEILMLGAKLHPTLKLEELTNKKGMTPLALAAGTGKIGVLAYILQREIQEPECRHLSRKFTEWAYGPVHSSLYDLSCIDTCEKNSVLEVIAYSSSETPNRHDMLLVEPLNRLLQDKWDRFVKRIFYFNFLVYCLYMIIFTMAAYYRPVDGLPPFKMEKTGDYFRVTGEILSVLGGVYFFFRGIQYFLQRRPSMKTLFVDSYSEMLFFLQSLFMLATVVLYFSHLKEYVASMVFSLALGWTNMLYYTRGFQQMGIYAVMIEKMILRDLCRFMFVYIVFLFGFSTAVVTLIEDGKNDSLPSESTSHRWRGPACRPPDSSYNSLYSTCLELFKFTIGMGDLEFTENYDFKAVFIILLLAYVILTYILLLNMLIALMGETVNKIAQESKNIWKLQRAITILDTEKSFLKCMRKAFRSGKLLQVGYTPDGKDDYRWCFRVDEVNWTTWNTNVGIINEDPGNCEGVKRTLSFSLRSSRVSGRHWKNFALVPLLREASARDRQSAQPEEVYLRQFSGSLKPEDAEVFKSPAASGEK
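TRPV1-expressing cells were cultured overnight at 35.5C and loaded with Fluo-8 calcium dye for 40 to 90 min at room temperature. After a 10 s baseline, compound was added and calcium influx was read kinetically for 3 min (ex 480/em 520 nm).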
CtBP-E1A blk – blocks the CtBP interaction with E1A; AlphaScreen GST-E1A/His-CtBP binding, 1536-well; stronger effect = lower value; control for the full effect not named in the record; 340,000 tested, 0.49% active; AID 651724; activity change, % (test concentration not listed); in the data active means activity change below about -65%; inconclusive means about -30% to -65%; inactive means above about -30%; also: % is scaled to controls: 0 for no effect and ±100 for the full control effect; compound concentration not given in the record
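Steps: dispense buffer (Tris pH 8.0, NaCl 300 mM, TCEP 1 mM, BSA, Tween 20); add 5X protein mix (GST-E1A, His-CtBP, 125 nM each); pin 23 nL compound; 2 h at 37 °C, dark; add 5X beads (50 ug/mL); 1 h; read.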
PINK1 modulator – PINK1 expression modulation. 410,000 tested, 0.2% active. PINK1 immunofluorescence, high-content cytometry, 24 h. Potency, µM (highest dose often 76.6 µM), inactives show at the top dose activation (PINK1 increase), hits mostly activators. AID 624263; active = well fitted activation curve with a large enough effect; inconclusive = small, poorly fitted or top-dose-only effect; inactive = flat fitted curve, though single readings scatter; cell line not stated here;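 also: potency is read from the fitted curve at half-maximal effect; % of control where 0% means no effect; nearly all actives have a fitted effect of over 65% in size; a mitochondrial uncoupler was the plate control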
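Fluorescence from anti-PINK1 antibody, together with nuclear and cell stains, was scanned on a laser-scanning cytometer. Before staining, stable-line cells were incubated 24 hours with compounds at 5 concentrations; primary antibody 12 h at 10 degrees C.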
Sfp PPTase inh – inhibitors of Bacillus subtilis Sfp phosphopantetheinyl transferase | Q9F4F7 | Biochemical Sfp PPTase activity, qHTS | Potency, µM, for the others: max response, negative = inhibition, most hits filed as inhibitors | 310,000 tested, 3.5% active | AID 1490; active = well fitted inhibition curve with a large enough effect; inconclusive = small, poorly fitted or top-dose-only effect, or another doubt; inactive = no such curve, though single readings can be large or run the other way;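 also: the enzyme is Sfp with the accession as filed and its product quenches rhodamine fluorescence; potency is read from the fitted curve at half-maximal effect; 0% = enzyme reaction without inhibitor and -100% = no enzyme wells; top concentration of the series not given in the record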
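With Hepes-Na pH 7.6 buffer containing 10 mM MgCl2, Sfp (15 nM) modified BHQ-2-YbbR (12.5 uM) using rhodamine-CoA (5 uM). Two reads 30 minutes apart at 525/598 nm yielded each well's rate.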
Active calls of the source: *; ? = inconclusive; · = no result given; [ ] = dose if it differs, or a comment.

Short keys – A = D2 agonist; B = D2 potentiator; C = Six1-Eya2 inh; D = TRPV1 potentiator; E = CtBP-E1A blk; F = PINK1 modulator; G = Sfp PPTase inh
CCc1ccc(N2C(=O)CC(N(CC3CCCO3)C(=O)/C=C/C(=O)O)C2=O)cc1 (centres undefined)
  A: -0.8	B: 8	C: 2	D: 0	E: 16	F: -0.7%	G: -4%

CCCn1c(CNS(=O)(=O)c2ccc(C)cc2)nc2ccccc21
  A: -0.1	B: -10	C: 3	D: -8	E: -4	F: 0.8%	G: 1%

CC(C)N(C(=O)COC(=O)[C@@H]1CC(O)CN1S(=O)(=O)c1ccccc1[N+](=O)[O-])C(C)C (some centres undefined)
  A: -3.4	B: -1	C: -2	D: -6	E: 7	F: -1.6%	G: 7%

O=C(C(Cc1ccccc1)n1cccc1)N1CCCCCC1 (centres undefined)
  A: -3.1	B: -1	C: -12	D: -13	E: -5	F: 3.6%	G: 0%

Cc1cc(Cl)n2c(nc3ccccc32)c1C#N
  A: -5.8	B: -35	C: -2	D: 4	E: 0	F: -1.0%	G: -3%

O=C(OCC(=O)c1cccs1)c1ccc([N+](=O)[O-])o1
  A: 9.7	B: 24	C: -2	D: 6	E: 3	F: 3.7%	G: 12%

COc1ccc(-c2csc3ncnc(N4CCN(c5cccc(Cl)c5)CC4)c23)cc1
  A: -3.8	B: -18	C: -11	D: -28	E: -9	F: 9.6%	G: 2%

COc1cc(C(=O)NNC(=O)c2ccc(NC(=O)C(C)(C)C)cc2)cc(OC)c1OC
  A: -0.1	B: 3	C: -3	D: 8	E: 5	F: 1.5%	G: 18%

C=CC[C@H](CC(=O)N(CCO)Cc1ccccc1)C(=O)N[C@H](COC(=O)[C@@H](CC=C)CC(=O)OC(C)(C)C)Cc1c[nH]c2ccccc12
  A: 1.6	B: 0	C: -17	D: ·	E: -22	F: -0.7%	G: ·

C[C@H](CO)N1C[C@H](C)[C@@H](CN(C)C(=O)NC2CCCCC2)OCc2cnnn2CCCC1=O
  A: -4.5	B: -2	C: -1	D: ·	E: -3	F: -0.9%	G: ·

CCOc1ccc(S(=O)(=O)N2CCC(C(=O)Nc3ccccc3N3CCCC3)CC2)cc1
  A: -1.9	B: -13	C: -19	D: ·	E: -5	F: -1.1%	G: ·

O=C1CN(C(=O)COC(=O)CCc2ccccc2O)c2ccccc2N1
  A: -2.0	B: 0	C: -8	D: ·	E: 0	F: -0.1%	G: ·

COc1ccc(-c2cc(C(=O)OCC(=O)Nc3ccc4c(c3)OCO4)c3ccccc3n2)cc1
  A: 1.3	B: -19	C: -13	D: 10	E: -10	F: 2.5%	G: 8%

CCCCc1nc(SCCN2CCOCC2)c2c(=O)n(C)c(=O)n(C)c2n1
  A: -3.0	B: -8	C: 6	D: 4	E: -23	F: 1.2%	G: 6%

O=S(=O)(c1ccccc1)N1CCCN(S(=O)(=O)c2ccccc2)CC1
  A: 3.8	B: -10	C: 4	D: -9	E: ·	F: 1.3%	G: 1%

COc1ccnc(Oc2ccccc2)c1C#N
  A: 2.0	B: -3	C: 2	D: -8	E: 0	F: 4.4%[38.3 µM]	G: 6%

Nn1c(COc2ccccc2F)nnc1SCC(=O)NC1CCCC1
  A: -3.8	B: -12	C: 4	D: 5	E: -11	F: -0.2%	G: 3%

CCc1ccccc1OCC(=O)OCC(=O)c1c(N)n(C)c(=O)n(C)c1=O
  A: -11	B: -7	C: -1	D: 19	E: 0	F: 2.7%	G: 8%

CN(Cc1ccccn1)C(=O)CC1C(=O)NCCN1Cc1ccc(F)cc1Cl (centres undefined)
  A: -2.2	B: -8	C: -6	D: 4	E: -5	F: 1.8%	G: -21%

O=C1CCC(c2ccccc2)c2ccccc21 (centres undefined)
  A: -1.8	B: -4	C: 16	D: ·	E: 15	F: 4.9%	G: ·

O=C(COC(=O)Cc1c(Cl)cccc1Cl)NCCC1=CCCCC1
  A: -1.0	B: -2	C: 2	D: -7	E: 12	F: 2.0%	G: ?

O=C(Nc1c(Cl)ccc2nsnc12)c1cccnc1
  A: -2.4	B: -1	C: -1	D: -3	E: ·	F: 0.6%	G: 17%

O=C(NC1CCN(C(=S)Nc2ccccc2)CC1)C1CCCCC1
  A: -3.6	B: -4	C: 4	D: -1	E: -13	F: -1.5%	G: 0%

C/C(CC(=O)NCCN1CCOCC1)=N\NC(=O)c1ccncc1
  A: -0.7	B: 2	C: -6	D: -16	E: -6	F: -1.5%	G: -8%

Nc1ccc(S(=O)(=O)N2CCC(Cc3ccccc3)CC2)cc1
  A: 1.9	B: 1	C: -1	D: -11	E: 8	F: -1.2%	G: -8%

N#C/C(=C\c1cccs1)C(=O)c1ccccc1
  A: -6.1	B: -5	C: 3	D: -8	E: 1	F: 1.4%	G: -7%

CC(=O)OCC(=O)Nc1c(C)cccc1C
  A: -8.6	B: -4	C: 7	D: -9	E: -12	F: 0.4%	G: 8%

CCOc1ccccc1NC(=O)Cn1c(=O)c(OCC)nc2cnccc21
  A: -0.4	B: -2	C: 6	D: 2	E: ·	F: 4.6%	G: 19%

COc1ccc(-c2nc(Cn3c(SCc4ccc(C)cc4)nc4ccncc43)c(C)o2)cc1OC
  A: -7.1	B: -7	C: -19	D: 6	E: -18	F: 3.2%	G: ?

O=C1CCCCCN1Sc1ccccc1
  A: -4.7	B: -9	C: -5	D: 12	E: -8	F: -1.7%	G: 25µM*

CCN(CC)C(=O)C1CCCN(C(=O)CCn2nnnc2CN2CCOCC2)C1 (centres undefined)
  A: 2.0	B: -9	C: 3	D: 2	E: 0	F: 2.5%	G: 8%

C=CCOC(=O)C1=C(C)Nc2nnnn2C1c1ccc(OC)cc1OC (centres undefined)
  A: -2.1	B: -6	C: -7	D: 2	E: -14	F: 0.2%[38.3 µM]	G: 11%

CCOC(=O)c1c(-c2ccccc2)nc2c(C)cccn12
  A: -1.6	B: -13	C: -8	D: -11	E: 0	F: -2.6%	G: -1%

O=C(COC(=O)c1cccc(S(=O)(=O)N2CCN(c3ccccc3)CC2)c1)NCc1ccco1
  A: 4.2	B: -16	C: -15	D: 25	E: 1	F: 12%	G: -19%

O=C1N/C(=N/N=C/c2ccc(F)cc2)SC1c1ccccc1 (centres undefined)
  A: -5.4	B: -9	C: -2	D: ?	E: -12	F: -1.5%	G: 0%

CCOC(=O)N1CCN(S(=O)(=O)c2ccc(OCC)c3ccccc23)CC1
  A: -1.5	B: -4	C: 0	D: 11	E: 0	F: 1.2%	G: 10%

CCOc1ccccc1CNCC1CCCO1 (centres undefined)
  A: 4.2	B: -4	C: 1	D: ?	E: 6	F: 1.0%	G: -9%

CCCC12CN3CC(CCC)(CN(C1)C3C(O)C(O)C(O)CO)C2=O (centres undefined)
  A: -1.7	B: -14	C: 3	D: 5	E: 9	F: -1.8%	G: 15%

O=C(CCN1C(=O)c2ccncc2C1=O)Nc1ccc(F)cc1
  A: -1.8	B: -3	C: 6	D: 25	E: 4	F: 0.3%	G: 17%

Cc1ccccc1CNC(=O)c1ccccc1SCC(=O)NCc1ccco1
  A: -0.2	B: -1	C: -7	D: 1	E: 8	F: 3.9%	G: ·

Cc1ccc(C)c(Cn2nnc3c(=O)[nH]c(C4CCN(C(=O)c5ccco5)CC4)nc32)c1
  A: 3.0	B: 2	C: -24	D: -5	E: -11	F: 0.2%	G: -4%

CC(C)(C)Nc1c(C2CCNCC2)nc2c(OCc3ccccc3)cccn12
  A: -5.1	B: -6	C: -14	D: ·	E: -15	F: 4.8%	G: ·

CCn1c(SCC(=O)Nc2nc3ccccc3s2)nnc1-c1ccc(OC)cc1
  A: -3.1	B: 0	C: 0	D: 12	E: 11	F: ?	G: -4%

CCOC(=O)c1sc2nc(C)nc(N3CCN(c4ncccn4)CC3)c2c1C
  A: -6.2	B: -9	C: 7	D: -14	E: ·	F: 0.0%	G: 3%

COc1ccc2cc(C#N)c(NC(C)C)nc2c1
  A: -0.6	B: -2	C: 41	D: 0	E: 34	F: -0.5%	G: 1%

CC1CCCCC12NC(=O)N(CC(=O)NCc1ccccc1)C2=O (centres undefined)
  A: -2.1	B: -13	C: 1	D: ·	E: 1	F: 0.8%	G: ·

COc1ccccc1CCNC(=O)c1cccc(NC(=O)CC2SC(N3CCCCC3)=NC2=O)c1 (centres undefined)
  A: 5.5	B: 6	C: -2	D: ·	E: -4	F: -0.7%	G: ·

O=C(Nc1nncs1)c1ccc(Br)c(S(=O)(=O)N2CCCC2)c1
  A: -1.6	B: -3	C: 5	D: -5	E: 2	F: 0.9%	G: 5%

CN(C(=O)COC(=O)c1cc(S(=O)(=O)N2CCCCC2)ccc1N1CCOCC1)C1CCS(=O)(=O)C1 (centres undefined)
  A: 0.1	B: -4	C: 0	D: -2	E: 3	F: 0.1%	G: 20%

O=C(OCc1ccccc1)N1Cc2ccnnc2CC1c1ccccc1Br (centres undefined)
  A: -3.8	B: -9	C: -2	D: ·	E: -1	F: 2.1%	G: ·

Cc1ccc(-c2nnn(CC(=O)N(CC(=O)NCC3CCCO3)c3ccc(F)c(Cl)c3)n2)o1 (centres undefined)
  A: -3.0	B: -10	C: -11	D: 4	E: -6	F: -3.3%[38.3 µM]	G: 12%

Cc1ccc(-n2c(Cc3cccs3)nnc2SCC(=O)Nc2ccc(S(N)(=O)=O)cc2)cc1
  A: -1.3	B: 5	C: -4	D: 2	E: -8	F: -1.9%	G: 10%

COc1cc(/C=N/NC(=O)Nc2ccccc2)ccc1OC(C)=O
  A: -0.8	B: -11	C: -7	D: 13	E: -3	F: 4.7%	G: 22%

COc1ccc(NC(=O)NC2(C(=O)N3CCOCC3)CCCCC2)cc1
  A: -1.4	B: -7	C: -12	D: 1	E: -3	F: -0.6%	G: 14%

Structures shown so far that contain bromine (two):
Short keys – A = D2 agonist; B = D2 potentiator; C = Six1-Eya2 inh; D = TRPV1 potentiator; E = CtBP-E1A blk; F = PINK1 modulator; G = Sfp PPTase inh
O=C(Nc1nncs1)c1ccc(Br)c(S(=O)(=O)N2CCCC2)c1
  A: -1.6	B: -3	C: 5	D: -5	E: 2	F: 0.9%	G: 5%

O=C(OCc1ccccc1)N1Cc2ccnnc2CC1c1ccccc1Br (centres undefined)
  A: -3.8	B: -9	C: -2	D: ·	E: -1	F: 2.1%	G: ·
